Lassa entry inh: Lassa virus entry inhibition; AID 540256; Potency, µM (series often up to 37.9 µM), inactives show top-dose activity change, negative = inhibition, hits mostly inhibitors; 300,000 compounds, 1.2% hits; Lassa virus pseudotype entry inhibition, cell reporter; control for the full effect not named in the record; active means well fitted inhibition curve with a large enough effect; inconclusive means small, poorly fitted or top-dose-only effect, or effect the other way; inactive means flat fitted curve, though single readings scatter; tested in HEK293 cells; also: % is scaled to controls: 0 for no effect and ±100 for the full control effect; nearly all actives have a fitted effect of over 50% in size; luciferase read-out
MARV entry inh: Marburg virus entry inhibition. Potency, µM (doses to about 37.8 µM), without a hit: top-dose activity change, negative = inhibition, hits mostly inhibitors. Marburg virus pseudotyped entry inhibition, cell reporter; control for the full effect not named in the record; about a third of the inactives were read at about 46 µM. 300,000 compounds, 1.8% hits; active = well fitted inhibition curve with a large enough effect; inconclusive = small, poorly fitted or top-dose-only effect, or effect the other way; inactive = flat fitted curve, though single readings scatter; tested in HEK293 cells; about a fifth of its hits are not listed in these tables; also: % is scaled to controls: 0 for no effect and ±100 for the full control effect; luciferase read-out
SARS PLpro yeast: SARS-CoV PLP inhibition in yeast | Potency, µM (titrated, usually from 32.9 µM), for inactives: at the top dose activity, positive = growth rescue | AID 485353 | S. cerevisiae expressing SARS-CoV PLpro, growth rescue; control for the full effect not named in the record | 330,000 compounds, 0.19% hits; active means well fitted rising curve with a large enough effect; inconclusive means small, poorly fitted or top-dose-only effect; inactive means no such curve, though single readings can be large or run the other way; also: 0% is about no effect; nearly all actives have a fitted effect of over 55% in size; growth read by luminescence after 48 h
Cruzain inh noDet: cruzain (T. cruzi) inhibition without detergent; 200,000 compounds, 2.3% hits; Potency, µM, without a hit: max response, negative = inhibition, hits mostly inhibitors; purified cruzain, Z-FR-AMC fluorescence, no detergent;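 also: plate controls were enzyme without inhibitor for no effect and buffer without enzyme for full effect; nearly all actives have a fitted effect of over 40% in size; top concentration of the series not given in the record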
Target sequence (P25779 123-467 limits assumed): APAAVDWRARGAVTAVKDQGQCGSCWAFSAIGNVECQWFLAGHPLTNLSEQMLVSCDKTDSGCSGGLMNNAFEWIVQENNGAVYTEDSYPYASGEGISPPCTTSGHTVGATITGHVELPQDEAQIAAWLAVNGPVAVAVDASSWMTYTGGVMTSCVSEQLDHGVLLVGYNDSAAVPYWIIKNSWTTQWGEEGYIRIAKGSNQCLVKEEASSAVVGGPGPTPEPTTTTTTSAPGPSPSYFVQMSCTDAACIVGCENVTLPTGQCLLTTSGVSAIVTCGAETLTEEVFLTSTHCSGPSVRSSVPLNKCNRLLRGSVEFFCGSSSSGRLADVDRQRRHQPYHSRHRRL
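Detergent-free condition (0.00005% Triton X-100) in acetate buffer pH 5.5 with DTT. 1.5 nM enzyme and compound were pre-mixed 15 min, then 2 uM Z-FR-AMC substrate added; reaction progress from fluorescence change between first and third reads (60 s).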
2A StopGo: FMDV 2A StopGo reporter, luciferase signal; human cells with a luciferase reporter of 2A StopGo recoding; control for the full effect not named in the record; Potency, µM (top dose mostly 57.9 µM), inactives show at the highest dose signal change, negative = less light; 410,000 compounds, 1.2% hits; AID 1159524; active = well fitted falling curve with a large enough effect; inconclusive = small, poorly fitted or top-dose-only effect; inactive = no such curve, though single readings can be large or run the other way; tested in HEK293T cells; also: % is scaled to controls: 0 for no effect and ±100 for the full control effect; nearly all actives have a fitted effect of over 45% in size; luciferase light after 4 h
Cruzain Triton: cruzain (T. cruzi) inhibition with detergent; P25779; Potency, µM, for the others: max response, negative = inhibition, actives largely listed as inhibitors; purified cruzain, Z-FR-AMC fluorescence, 0.01% Triton; 200,000 compounds, 0.43% hits;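 also: plate controls were neutral wells for no effect and buffer without enzyme for full effect; nearly all actives have a fitted effect of over 40% in size; top concentration of the series not given in the record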
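Steps: dispense cruzain (1.5 nM final) in acetate buffer pH 5.5 with DTT and 0.01% Triton X-100; pin-transfer compounds; incubate 15 min RT; add Z-FR-AMC (2 uM final); read fluorescence every 30 s, using the 60 s intensity change.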
NS1 inh: inhibitors of influenza NS1 protein function. S. cerevisiae slowed by influenza A NS1, growth recovery by OD600. Potency, µM (series often up to 46.1 µM), for inactives: at the highest dose activity, positive = more growth. 270,000 compounds, 0.4% hits; active means well fitted rising curve with a large enough effect; inconclusive means small, poorly fitted or top-dose-only effect; inactive means no such curve, though single readings can be large or run the other way; also: nearly all actives have a fitted effect of over 50% in size
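Growth recovery, yeast-based: influenza A NS1 expressed in S. cerevisiae causes slow growth, and suppressors are detected by OD600. The parent strain without NS1 is used as positive control.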
RE007 growth inh: less growth of the S. pombe RE007 Vpr strain; S. pombe RE007 Vpr strain, BacTiter-Glo ATP luminescence, 24 h; control for the full effect not named in the record; Potency, µM (series often up to 92.2 µM), inactives show at the top dose activity change, negative = less growth; 360,000 compounds, 0.21% hits; active = well fitted falling curve with a large enough effect; inconclusive = small, poorly fitted or top-dose-only effect; inactive = no such curve, though single readings can be large or run the other way;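 also: % is scaled to controls: 0 for no effect and ±100 for the full control effect; nearly all actives have a fitted effect of over 50% in size; the assay follows cell death caused by Vpr and the record does not say whether a fall means rescue or toxicity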
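Fission yeast RE007 carrying one integrated HIV-1 vpr copy, seeded at OD 0.01 in PMG+AL medium with 23 nL pinned compound. Grown 24 h at 30 degrees; viability read by BacTiter-Glo luminescence after 5 min.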
An asterisk follows results filed as active; ? = inconclusive; . = not tested or not shown; [ ] = remark or other dose. Unless noted, calls follow the shape of the dose curve; as a rule, active = well fitted curve in the direction sought with a large enough effect; inconclusive = small, poorly fitted or top-dose-only effect, or another doubt; inactive = no such curve, though single readings can be large; an effect the other way counts as inactive or inconclusive. Potency is read from the fitted curve at half-maximal effect.

item	compound	Lassa entry inh	MARV entry inh	SARS PLpro yeast	Cruzain inh noDet
1	COc1ccc(C2SCC(=O)Nc3c2c(=O)[nH]n3C2CCCCC2)cc1 (stereo not given)	?	0%	2%	6%
2	O=S1(=O)CCOC[C@H](CC2CCCCC2)N1Cc1ccccc1	.	.	8%	.
3	CC1=NCCN1S(=O)(=O)c1ccc(Br)c(C)c1	1%	?	2%	19%
4	Cc1cccc(C(=O)OC(C)CN2CCN(C)CC2)c1 (stereo not given)	?	6%	-2%	.
5	CCC(=O)Nc1nc2c(OC)ccc(OC)c2s1	.	.	-9%	-10%
6	CCOc1ccc2ccccc2c1C1NC(=O)NC(C)=C1C(=O)OCCOC (stereo not given)	7%	-29%[46.1 µM]	-2%	.
7	Cc1c(NC(=O)CSc2nc3ccccc3s2)c(=O)n(-c2ccccc2)n1C	-2%	11%	14%	-1%
8	COc1ccc(/C=N/n2c(-c3n[nH]c4c3CCC4)n[nH]c2=S)cc1	-22%	8%	-1%	.
9	COC(=O)c1cc(Br)ccc1NC(=O)CCNC(=O)c1ccco1	13%	-1%[46.1 µM]	-4%	.
10	Cc1ccc(S(=O)(=O)N(Cc2ccc(Cl)cc2)c2ccccc2C(=O)NCc2ccco2)cc1	-15%	?	-13%	18%
11	CCOC(=O)c1cc(-c2ccc(N)cc2)sc1N	-28%	-24%	-10%	32µM*
12	O=C(CSc1nnc(CNc2ccccc2)o1)c1ccc2c(c1)OCCO2	8%	0%	-2%	-16%
13	CS(=O)(=O)N1CCN(c2ccc([N+](=O)[O-])cc2F)CC1	?	0%[46.1 µM]	4%	.
14	CC1CCCCC1NC(=O)c1ccc2c(c1)[nH]c(=O)n2C1CCCC1 (stereo not given)	?	?	12%	6%
15	CCc1nnc2c(NCCc3ccccc3)nc3ccccc3n12	.	.	-1%	.

item	2A StopGo	Cruzain Triton	NS1 inh	RE007 growth inh
1	-8%	1.5%	10%	2%
2	-26%	.	-24%	4%
3	20%	2.9%	-10%	1%
4	38%[activator]	.	.	-13%
5	-17%	2.2%	-13%	-12%
6	-14%	.	13%	-5%
7	3%	5.0%	6%	-4%
8	-10%	.	1%	0%
9	-9%	.	-10%	-18%
10	-2%	-5.3%	16%	24%
11	42%[activator]	-17%	-67%	-10%
12	.	-6.9%	-5%	-12%
13	-13%	.	.	3%
14	-25%	-5.7%	?	-1%
15	-5%	.	3%	-8%

(further entries)
item	compound	Lassa entry inh	MARV entry inh	SARS PLpro yeast	Cruzain inh noDet
16	CCCCN(CC)CCCNC(=O)Cn1ncc2c3ccccc3n(Cc3ccc(F)cc3)c2c1=O	-14%[46.1 µM]	6%[46.1 µM]	.	2%
17	CCC(C)(C)NC(=O)C(c1ccc(C)cc1)N(CCN1CCOCC1)C(=O)CNC(=O)c1cccs1 (stereo not given)	-10%	?	0%	.
18	CN1CCN(S(=O)(=O)c2cccc(C(=O)N(C)C(c3ccccc3)c3ccccc3)c2)CC1	-4%	-13%	1%	.
19	COc1cccc(NC(=O)C(Cc2ccccc2)NS(=O)(=O)c2ccc3c(c2)oc(=O)n3C)c1 (stereo not given)	23%[46.1 µM]	-16%[46.1 µM]	.	-1%
20	Cc1cc(=O)[nH]c(N/N=C/c2c(F)c(F)c(F)c(F)c2F)n1	.	.	0%	.
21	COCCNC(=O)C(c1ccc(O)cc1)N(Cc1cccs1)C(=O)CCC(=O)Nc1ccccn1 (stereo not given)	7%[46.1 µM]	4%[46.1 µM]	-1%	.
22	CCCN1CCN(C(=O)CCc2nnc3ccc(N4CCN(c5cccc(OC)c5)CC4)nn23)CC1	.	.	-3%	.
23	N#Cc1ccncc1S(=O)c1ccc(Cl)cc1 (stereo not given)	.	.	0%	.
24	O=C(O)CCn1[nH]c(=O)ccc1=O	-3%	5%	2%	-4%
25	CN(C)CCc1nn[nH]n1	8%	?	15%	4%
26	Cc1cc(Nc2ccccc2)nc(N2CCN(C(=O)c3ccc4c(c3)OCO4)CC2)n1	1%	0%	.	.
27	CCN1CCN(c2nc3c(c(=O)n(C)c(=O)n3C)n2CCSc2nccc(C)n2)CC1	16%	?	2%	5%
28	Cc1ccc(C(=O)NCc2ccco2)cc1S(=O)(=O)N1CCOCC1	-24%	-9%	1%	-10%
29	CCOC(=O)C1(Cc2cccc(F)c2)CCN(C(=O)C2CCC2)CC1	.	.	0%	.
30	O=C(CCC(=O)NNc1nc2ccccc2c2nc(-c3ccccc3)nn12)NCCCN1CCCC1=O	14%[46.1 µM]	15%[46.1 µM]	4%	.

item	2A StopGo	Cruzain Triton	NS1 inh	RE007 growth inh
16	2%	-1.9%	.	.
17	0%	.	1%	0%
18	2%	.	.	23%
19	-17%	4.2%	.	.
20	2%	.	3%	-8%
21	-10%	.	-13%	-18%
22	-19%	.	2%	1%
23	-10%	.	-3%	3%
24	8%	-2.6%	2%	22%
25	1%	0.5%	0%	14%
26	-23%	.	.	5%
27	-16%	1.4%	1%	3%
28	40%[activator]	0.6%	2%	12%
29	10%	.	-6%	26%
30	0%	.	.	37%

(continued)
item	compound	Lassa entry inh	MARV entry inh	SARS PLpro yeast	Cruzain inh noDet
31	COCCn1c(Cc2ccccc2)nnc1SCc1nc2ccccc2c(=O)[nH]1	-20%	0%[46.1 µM]	4%	2%
32	COc1cc2c(cc1OC)/C(=C/C(=O)c1ccc([N+](=O)[O-])c(C)c1)NCC2	.	.	2%	.
33	O=C(NCCCC1CCCC1)C1CCC(=O)N(Cc2cccc(C(F)(F)F)c2)C1 (stereo not given)	-1%	?	-5%	.
34	Cc1c(NS(=O)(=O)c2cccc(C(=O)NCc3cccc(Cl)c3)c2)c(=O)n(-c2ccccc2)n1C	9%	-1%	.	.
35	Cc1cc2nc(CS(=O)(=O)c3ccccc3)cc(=O)n2[nH]1	-11%	?	1%	.
36	CN(C)/C=N/S(=O)(=O)c1cccn1-c1ncc(C(F)(F)F)cc1Cl	4%[46.1 µM]	-6%[46.1 µM]	1%	.
37	C=CCNC(=S)N/N=C/c1ccc(-c2ccc(Br)cc2)o1	-24%	?	6%	-16%
38	COc1ccc(OC)c(NC(=O)C(C)n2nc(C)c3c(C)n(-c4ccccc4)nc3c2=O)c1 (stereo not given)	2%[46.1 µM]	.	.	6%
39	Cc1ccc(-c2nc(CS(=O)(=O)CC(=O)NC(C)CCc3ccccc3)c(C)o2)cc1 (stereo not given)	-3%[46.1 µM]	?	.	?
40	Nc1nc(SCc2ccc3c(c2)OCO3)n[nH]1	2%	10%[46.1 µM]	.	7%
41	COc1ccc(CCNC(=O)COC(=O)c2ccc(N3CCCC3=O)cc2)cc1	2%[46.1 µM]	4%[46.1 µM]	3%	.
42	CC12CCC(C(=O)Nc3cc(F)ccc3F)(CC1=O)C2(C)C (stereo not given)	24%	-24%[46.1 µM]	-1%	.
43	CCOC(=O)c1cc2c(=O)n3ccccc3nc2n(Cc2ccco2)c1=NC(=O)c1c(F)cccc1Cl	10%[46.1 µM]	16%[46.1 µM]	.	5%
44	O=C1CSC(c2ccc([N+](=O)[O-])cc2)N1C1CCCCC1 (stereo not given)	.	.	0%	.
45	CCCOc1cc(N)ccc1C(=O)OCCN(CC)CC	.	.	.	-14%

item	2A StopGo	Cruzain Triton	NS1 inh	RE007 growth inh
31	-21%	3.8%	25%	1%
32	-21%	.	4%	-3%
33	0%	.	-27%	-17%
34	-13%	.	.	8%
35	16%	.	.	1%
36	-7%	.	6%	-8%
37	-11%	-14%	13%	-6%
38	-10%	-4.5%	.	.
39	-3%	-9.2%	.	.
40	0%	1.9%	5%	4%
41	1%	.	.	-7%
42	0%	.	0%	-4%
43	1%	-20%	.	.
44	-17%	.	.	7%
45	-7%	-7.4%	.	-12%[18.4 µM]

Reformatted: results already given.
| No. | mol | Lassa entry inh | MARV entry inh | SARS PLpro yeast | Cruzain inh noDet | 2A StopGo | Cruzain Triton | NS1 inh | RE007 growth inh |
| --- | --- | --- | --- | --- | --- | --- | --- | --- | --- |
| 40 | Nc1nc(SCc2ccc3c(c2)OCO3)n[nH]1 | 2% | 10%[46.1 µM] | . | 7% | 0% | 1.9% | 5% | 4% |
| 39 | Cc1ccc(-c2nc(CS(=O)(=O)CC(=O)NC(C)CCc3ccccc3)c(C)o2)cc1 (stereo not given) | -3%[46.1 µM] | ? | . | ? | -3% | -9.2% | . | . |
| 34 | Cc1c(NS(=O)(=O)c2cccc(C(=O)NCc3cccc(Cl)c3)c2)c(=O)n(-c2ccccc2)n1C | 9% | -1% | . | . | -13% | . | . | 8% |

Going on with the list.
item	compound	Lassa entry inh	MARV entry inh	SARS PLpro yeast	Cruzain inh noDet
46	COc1ccc(CNc2oc(COc3ccccc3Cl)nc2C#N)cc1	-28%	?	-9%	-3%
47	Cc1ccccc1C(NC(N)=O)c1ccccc1 (stereo not given)	19%	?	13%	-3%
48	N#CC(c1nc2ccccc2nc1N1CCCC1)S(=O)(=O)c1cccs1 (stereo not given)	3%	23%	-7%	-12%
49	O=C(O)c1cccc(COc2ccc(CO)cc2Cl)c1	0.29µM*	?	3%	-5%
50	CNC(=S)NNC(=O)c1oc2nc(-c3ccccc3)cc(C)c2c1N	-23%	0%[46.1 µM]	-3%	.
51	COc1ccc(CCN2C(=O)N(c3ccccc3)C(=O)C2CC(=O)Nc2ccccc2)cc1 (stereo not given)	-24%[46.1 µM]	6%[46.1 µM]	.	-7%

item	2A StopGo	Cruzain Triton	NS1 inh	RE007 growth inh
46	-21%	0.1%	-2%	-1%
47	49%[activator]	3.2%	-3%	1%
48	49%[activator]	-12%	11%	1%
49	.	0.1%	0%	-13%
50	3%	.	2%	-2%
51	14%	-3.7%	.	.
